PrP UTR inh – suppresses PrP 5' UTR mRNA reporter expression; cell-based PrP 5' UTR mRNA reporter, plate reader; inhibition, % (test concentration not listed); 340,000 tested, 0.35% active;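 active = every replicate at 50% or more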;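 note: 0 = median of the neutral control wells; tested in H4 reporter cells; numbers are from one replicate; inactives centre near -14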
Mtb hypoxia inh – Mtb hypoxia fluorescent reporter inhibition. M. tuberculosis hypoxia-regulated fluorescent reporter, fluorescence. fluorescence inhibition, % (concentration not given with the values). 300,000 tested, 0.1% active. AID 1159583;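 active = 35 to 45% if threefold the growth effect, above 45% if 1.5-fold the growth effect; inactive = the rest, general growth blockers included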;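 note: wells of about 50 µL received 100 nL stock; 0% = vehicle wells and 100% = reference inhibitor wells; whole bacteria with a GFP reporter of the hypoxia response; strong numbers were not always called active; many hits fall short of the cut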
Bead autofluor – flagged as autofluorescent in microsphere protease counterscreen; compound autofluorescence counterscreen, microsphere flow cytometry; active compounds read high; 360,000 tested, 3.1% active; fluorescence intensity (concentration not given with the values);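 active = at least 3 SD above the mean of all compounds, about 16000 in these data; inconclusive = too few beads counted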;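 note: 100 nL of 1 mM stock went into each well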
ugtP null kill – compounds lethal to S. aureus RN4220 ugtP deletion mutant. OD600 growth, 16 h; some inactives read as strong as hits. growth inhibition, % (no concentration beside the values). 330,000 tested, 0.54% active;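 active = z-score under -3 and OD600 up to 0.15 on both plates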;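 note: plate controls were untreated wells for no effect and antibiotic for full effect; wells of about 80 µL received 100 nL stock; the first replicate is given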
BJeLR lethal – BJeLR cell viability loss | AID 1554 | 300,000 tested, 0.17% active | inhibition, % (test concentration not listed) | BJeLR (HRASV12) viability, CellTiter-Glo ATP luminescence, 48 h; reference of the scale not given here;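 active = replicate mean above 50%; inconclusive = above 50% but judged a plate artefact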;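 note: 50 nL library stock added to about 25 µL; numbers are from one replicate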
RN4220 kill – S. aureus RN4220 growth inhibition | AID 1259311 | OD600, 16 h | inhibition, % (test concentration not listed) | 330,000 tested, 0.33% active;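 active = z-score of -3 or lower and OD600 up to 0.18 on both plates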;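 note: plate controls were untreated cells for no effect and reference antibiotic for full effect; stock transfer was 100 nL into about 80 µL; one replicate is shown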
Mtb hypoxia inh growth – second read-out of Mtb hypoxia inh, no call of its own (marks repeat the call); growth inhibition, %; measured here: M. tuberculosis growth (absorbance);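 0% = vehicle and 100% = reference antibiotic; read after six days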
The depositor's hits bear a star; ? = inconclusive; nt = not tested or not shown; & = joins results of further samples.

Order of values: PrP UTR inh, Mtb hypoxia inh, Mtb hypoxia inh growth, Bead autofluor, ugtP null kill, BJeLR lethal, RN4220 kill
- CCOc1ccc2c(c1)nc(C)n2C
  -18, 13, 9, nt, 0, -8, 5.5
- COCC1CCN(Cc2cn[nH]c2-c2ccc(OC)c(F)c2)C1 (configuration not stated)
  -29, 13, 5, 4257, 1, 0, 4.3
- O=C(NN1CCOCC1)c1cc(-c2ccc(Br)cc2)nc2ccccc12
  -11, 8, 2, 2228, 4, 5, 5.1
- CCC(=O)Nc1ccc(Br)cn1
  -16, -3, 6, 4492, 1, 10, 1.9
- CN(CCOc1ccccc1)CC(O)COCc1ccccc1F (configuration not stated)
  -19, 9, -4, 3899, 4, 6, 1.3
- Cc1c(C(c2ccc(Cl)cc2Cl)c2c(O)c3ccccc3oc2=O)c(=O)n(-c2ccccc2)n1C (configuration not stated)
  -15, -7, 3, 4510, -3, -10, 1.3
- CCOC(=O)c1ccc(S(=O)(=O)Nc2cc(C(C)(C)C)no2)cc1
  -13, 12, 15, 24179*, 0, -6, 3.8
- O=C(Nc1ccccc1)Nc1nnc(Cc2ccc(F)cc2)s1
  -27, 2, 3, 4183, 9, -2, 3.0
- COC(=O)c1cc(-c2ccc(OC)cc2)nc2nc(SC)[nH]c(=O)c12
  -18, -9, 11, 3865, 18, -3, -1.1
- CNC(=O)CSc1nc(-c2ccccc2)c(-c2ccccc2)o1
  -13, 17, 2, 4475, 4, 5, -0.1
- O=C(NN=Cc1ccc2c(c1)OCO2)c1ccn(Cc2ccc(Cl)cc2)n1
  nt, -4, -3, nt, -5, nt, -1.6
- CSc1cccc(CN2CCC(CO)(Cc3cccc(C(F)(F)F)c3)CC2)c1
  -28, 7, 14, 4265, 5, 0, -4.3
- Cc1ccc(OCC(=O)OCC(=O)Nc2sccc2C(N)=O)cc1C
  -29, 2, 11, 2288, 1, -8, 2.9
- CN1CCN(C(=O)c2cnn3c(C(F)(F)F)cc(-c4ccc5c(c4)OCO5)nc23)CC1
  -41, 4, 9, 8815, 2, -3, 6.2
- CCOC(=O)N1CCC(NC(=O)C2CCCN(S(=O)(=O)c3cccnc3)C2)CC1 (configuration not stated)
  -14, 7, 5, 4408, -1, 2, -13
- O=C(CN1C(=O)COCC1=O)N1CCOCC1
  -15, 3, -7, 9815, 5, 1, 1.0
- COCCNC(=O)CN(C)S(=O)(=O)c1ccc(Br)cc1
  -19, 1, -6, 10607, 9, -2, 3.4
- CCn1cc(C(=O)NC(=S)Nc2sc3c(c2C(=O)OC)CCCCCC3)cn1
  -11, -11, -9, 10118, -11, 5, -1.5
- CCOC(=O)CCc1c(C)c2ccc3c(c2oc1=O)CN(CCCO)CO3
  -14, 5, -3, 3836, 3, -17, 4.6
- N#CC(=Cc1ccc(O)cc1)C(N)=C(C#N)C#N
  47, -1, 2, 4577, -5, nt, 4.8
- O=C(NCc1ccncc1)C(=O)Nc1nc(C23CC4CC(CC(C4)C2)C3)cs1
  -17, 9, 5, 2558, -16, 22, 2.3
- Cc1ccccc1NC(=O)c1sc(Cl)nc1C
  -16, 7, 6, 2378, 3, 8, 5.8
- Cc1c(NC(=O)CSc2ncn[nH]2)c(=O)n(-c2ccccc2)n1C
  -16, 5, 1, 3315, -5, -6, -18
- COc1ccc(CN2CCC(=O)N(C(CO)c3ccccc3)CC2)cc1OC (configuration not stated)
  nt, -1, -3, nt, -7, nt, -2.1
- COc1ccc(CNC(=O)CCc2nnc3ccc(NCCCN4CCCC4=O)nn23)cc1
  -5, 3, 3, 5409, 8, 1, 5.2
- O=S(=O)(NCCc1csc(-c2cccnc2)n1)c1ccc(F)cc1
  -16, 14, -24, 5871, 8, -2, 1.5
- O=C(c1cc2ccccc2o1)N1CCOCC1
  -3, 2, 9, ?, 1, 1, 1.4
- O=C(CSc1n[nH]c(-c2cccnc2)n1)Nc1cccc(Cl)c1
  -22, 12, -2, 3356, -11, 1, -0.4
- COc1ccc(OC)c(NC(=O)CC(NC(C)=O)c2ccccc2)c1 (configuration not stated)
  -17, -11, -14, 4472, 5, -9, 4.6
- NC(=O)C(=O)NN=Cc1c2ccccc2cc2ccccc12
  nt, 7, 6, nt, -7, nt, 0.9
- Cc1ccc(NC(=S)NCCc2ccccc2)nc1
  -10, 13, 12, 3339, 1, 3, 5.8
- Cc1nc(NC(=S)NC(=O)c2cccs2)sc1C(=O)N(C)C
  1, -12, 5, 22794*, 0, -5, -0.2
- O=C(N/N=C/c1ccccc1O)C1CC(=O)N(c2ccc(Cl)cc2)C1 (configuration not stated)
  28, nt, nt, 4965, nt, -3, nt
- CC(=O)Nc1ccc(NC(=O)COc2ccc([N+](=O)[O-])cc2)cc1
  -16, -6, -2, 3378, 6, 4, 14
- CC(=NNC(=O)C(N)=O)c1ccc2c(c1)OCCO2
  nt, 2, 3, nt, -10, nt, -0.4
- COc1ccc(CNC(=O)C2CCN(S(=O)(=O)c3cc(OC)ccc3OC)CC2)cc1
  -9, 7, 1, 2304, -1, nt, -3.8
- Cc1cc2cc(CNC(=O)c3ccc(S(=O)(=O)N4CCOCC4)cc3)ccc2[nH]1
  -41, 3, 8, 4026, -5, -2, -16
- CC(OC(=O)c1ccc2ncsc2c1)C(=O)Nc1ncc(Cl)cc1Cl (configuration not stated)
  -13, 7, -2, 2434, 4, 0, 6.8
- Cc1c(Cl)cccc1NC(=O)c1ccc(-n2ccnc2)nc1
  -22, -1, 11, 5341, -5, -4, 2.3
- Cc1ccc(C(=O)NCC(=O)O)cc1S(=O)(=O)N1CCCCC1
  -8, 6, 3, 10100, -1, -11, 5.0
- CCc1nnc(NC(=O)CSc2nc3c(c(=O)n2-c2ccccc2OC)SCC3)s1
  -7, 1, 4, 4453, 1, nt, -2.0
- COc1cccc(C(=O)OCCN2CCCCC2)c1
  -23, nt, nt, 2474, -1, 13, -0.4
- Cc1nn(C(C)(C)C)c(OC(=O)c2ccc3c(c2)OCO3)c1S(=O)(=O)c1ccccc1
  -7, nt, nt, 3664, 11, 0, 3.0
- O=C(Nc1cccc(-c2nc3ccccc3s2)c1)c1cc(=O)c2ccccc2o1
  -24, 0, -1, 2346, 5, -16, 3.7
- CCOC(=O)C1(Cc2ccccc2)CCN(Cc2ccc(C)s2)CC1
  -13, 7, 8, 3605, 9, 8, 3.0
- COc1cc(C(=O)Nc2ccc(NC(C)=O)cc2)ccc1OCc1ccccc1
  -16, nt, nt, 3231, nt, -5, nt
- COc1ccc(OC)c(S(=O)(=O)N/N=C(/C)c2ccc3c(c2)OCO3)c1
  1, nt, nt, 5333, nt, -1, nt
- COc1ccc(C(O)P(=O)(OC2CCCCC2)c2ccc(N(C)C)cc2)cc1OC (configuration not stated)
  3, 3, 10, 22879*, 5, 7, 4.8
- Cc1ccc(C(=O)N2CCN=C2SCc2ccc([N+](=O)[O-])cc2)cc1
  -10, -2, 12, 2639, 4, -10, -1.0
- CCC(C)n1c(C)nc2c(c1=O)c1nc3ccccc3nc1n2CCC1=CCCCC1 (configuration not stated)
  1, 1, 6, ?, -22, 5, 3.8
- CN(C)C(=NS(=O)(=O)c1ccccc1)c1ccc(Cl)cc1
  nt, -4, -2, nt, -5, nt, 0.0
- CSc1nnc(C)c(=O)n1COC(=O)c1ccc([N+](=O)[O-])cc1
  -14, -4, -16, 5490, 10, 27, 5.8
- CCOc1ccccc1CN1CCN(Cc2c[nH]c3ccccc23)CC1CCO (configuration not stated)
  -35, -3, 7, 3841, 6, 11, 4.2
- CCOC(=O)C1C2COc3cc(OC)ccc3C2N2C(=O)N(c3cccc(Cl)c3)C(=O)[C@@]12C (some centres not stated)
  nt, 13&-4, 14&5, nt, 13&-15, nt, 7.8&7.8
- CC(=NNS(=O)(=O)c1ccc(F)cc1)c1ccncc1
  nt, 10, 1, nt, -1, nt, 1.7
- O=C(Nc1ccc(N2CCOCC2)c(Cl)c1)c1ncn[nH]1
  -4, 4, 2, 2500, -1, -15, -13
- CCOc1cccc(C(c2c(C)n(C)n(-c3ccccc3)c2=O)c2c(C)n(C)n(-c3ccccc3)c2=O)c1OC
  -29, 15, 6, 4135, 5, -3, 0.8
- O=C(OC1CCOC1=O)c1ccc(CO)cc1 (configuration not stated)
  -18, 1, 1, 4565, 0, -7, 2.1
- O=C(Nc1cccc2ccccc12)c1ccc(OC(=S)N2CCOCC2)cc1
  -60, 4, 15, 10753, -15, 22, -1.9
- CC(=NNC(=O)Cn1ccc(C(F)(F)F)n1)c1ccc2c(c1)OCO2
  nt, 7, 9, nt, 6, nt, 7.0

Later entries
Order of values: PrP UTR inh, Mtb hypoxia inh, Mtb hypoxia inh growth, Bead autofluor, ugtP null kill, BJeLR lethal, RN4220 kill
- COc1ccccc1N1CC(C(=O)OCC(=O)Nc2c(C)cccc2C)CC1=O (configuration not stated)
  5, nt, nt, 3206, nt, 6, nt
- O=C(NCc1ccccn1)C1Nc2ccc(OC(F)(F)F)cc2C2C=CCC12 (configuration not stated)
  -2, -6, 7, 2937, -7, 4, 1.3
- Cc1nc(CCNC(=O)c2cccs2)cs1
  -26, -1, 15, 10796, 6, 7, 6.3
- C=CCOC(=O)C(C#N)c1nc2ccccc2nc1N1CCN(c2ccccc2OC)CC1 (configuration not stated)
  -5, nt, nt, 2797, 9, 15, -5.1
- COc1ccc(C)cc1S(=O)(=O)N(CC(=O)NC1CCCC1)c1ccc(F)cc1
  10, -6, -10, 4624, 1, 1, 3.4
- Cc1ccc(NC(=O)CN(C)C(=O)Cn2nnc(-c3ccccc3C)n2)cc1
  -12, 8, 2, 3028, 1, nt, 1.6
- COC(CNC(=O)Cn1nc(Cc2ccncc2)c2ccccc2c1=O)OC
  0, 10, -4, 3827, 3, -9, 3.7
- Cc1ncc(CN2CCC(N3CCC(C(=O)N4CCCC4)CC3)CC2)s1
  -11, -4, 6, 5899, 6, 3, 2.6
- CC(=O)c1c(C)[nH]c(C(=O)CN2C(=O)NC3(CCCCC3C)C2=O)c1C (configuration not stated)
  -42, 11, 0, 6075, 3, nt, 1.7
- COC(=O)C1=C(c2ccc(OC)c(OC)c2)CC2CCC1N2C(=O)N1CCc2cc(OC)c(OC)cc2C1 (configuration not stated)
  nt, 3, 5, nt, 0, nt, 6.2
- CCOC(=O)c1c(C)[nH]c(C(=O)OCc2csc(CC(=O)Nc3ccccc3C)n2)c1C
  5, 3, 7, 6345, 5, -6, 2.5
- Cc1nc(N)sc1C(=O)N/N=C/c1ccco1
  -30, nt, nt, 2520, nt, -9, nt
- CC(C)CCNC(=O)C(C)N(C(=O)Cn1nnc(-c2ccc(F)cc2)n1)C1CCCC1 (configuration not stated)
  -11, 0, 4, 23478*, 9, 5, 3.5
- CC(C)n1nnnc1SCC(=O)N1CCN(Cc2ccc3c(c2)OCCO3)CC1
  -30, 9, 2, 8993, 3, nt, 3.1
- CC1(NC(=O)C2CCCCC2)CCS(=O)(=O)C1 (configuration not stated)
  -13, 3, -6, 4435, 2, -18, 2.7
- COc1ccc(CN2C(=O)NC(=O)/C(=C/c3ccoc3)C2=O)cc1
  -10, -1, 3, 3150, 1, -7, 0.2
- CCN(CC(=O)NCc1ccc(Cl)cc1)C(=O)c1cnc(Cl)c(Cl)c1
  -23, 3, -3, 3578, 8, 1, 1.4
- Cc1oc(-c2ccccc2Cl)nc1CN1CCCC1c1ccc(F)cc1 (configuration not stated)
  -14, -3, 3, 6213, -7, -6, 5.7
- O=C(NC1CC1)c1nc2c(nnn2Cc2ccccc2Cl)c(=O)[nH]1
  -37, 3, 5, 7900, -7, 8, 14
- NS(=O)(=O)c1ccc(N2CCCC2=O)c([N+](=O)[O-])c1
  8, -5, -4, 2409, 0, 1, 4.0

Only PrP UTR inh, ugtP null kill and Mtb hypoxia inh, for 2 of the compounds above:
compound	PrP UTR inh	ugtP null kill	Mtb hypoxia inh
COC(CNC(=O)Cn1nc(Cc2ccncc2)c2ccccc2c1=O)OC	0	3	10
Cc1ncc(CN2CCC(N3CCC(C(=O)N4CCCC4)CC3)CC2)s1	-11	6	-4

Next compounds:
Order of values: PrP UTR inh, Mtb hypoxia inh, Mtb hypoxia inh growth, Bead autofluor, ugtP null kill, BJeLR lethal, RN4220 kill
- COC(=O)CN1C(=O)N(c2ccccc2)C(N(O)C(=O)Nc2ccccc2)C1(C)C (configuration not stated)
  -17, 7, 13, 4410, 7, -11, 3.9
- C=CCN1C(=O)c2ccc(C(=O)N(CCC)CC(=O)Nc3ccccc3C)cc2C1=O
  7, -2, -7, 4766, -2, -6, 3.3
- Cc1nn(-c2ccccc2)c(C)c1C(=O)OCC(=O)NC12CC3CC(CC(C3)C1)C2
  -29, 13, 12, 22484*, -20, -3, -0.9
- COCCN(CCOC)S(=O)(=O)c1ccc(NC(=O)c2cnccn2)cc1
  -7, 4, 16, 3818, -1, -4, 0.0

Screens deposited in PubChem BioAssay by several laboratories.
